Source: PubChem BioAssay (several laboratories)
Mtb growth: M. tuberculosis H37Rv growth inhibitors, H37Rv strain (AID 1626). one-dose inhibition, % at 10 µM; IC50 in µM for titrated hits. M. tuberculosis H37Rv growth inhibition; higher % means a stronger effect. 0.95% of 220,000 active;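 active = confirmed in a dose series; inconclusive = inhibition above 80% but not taken into the dose series; inactive = below 80% or under 30% at every dose of the series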;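 also: bacteria incubated seven days before Alamar blue readout; 0% = bacteria only wells and 100% = bacteria with antibiotic wells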
YopH inh: inhibitors of Yersinia enterocolitica YopH tyrosine phosphatase; AID 898; inhibition, %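 (about 10 µM by stock and volumes)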; fluorescence Ex485/Em525; 0.16% of 140,000 active;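 active = inhibition of 50% or more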;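 also: controls were vehicle for no effect and minimum signal wells for full effect; inactives centre near -20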
Arbovirus anti: arbovirus infection inhibition. arbovirus infection cell-based antiviral screen. inhibition, % at 10 µM. 0.37% of 200,000 active;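 active = inhibition from about 30%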;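 also: bluetongue infection of BSR cells; cell survival read as ATP light after 72 h; 0% = infected wells without compound and 100% = uninfected wells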
Mtb bLac sens: beta-lactam sensitization of Mtb H37Rv. M. tuberculosis H37Rv growth with meropenem, percent inhibition; hits of this screen are not shown here. inhibition, % at 25 µM. 0.27% of 330,000 active;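 active = about 74% or more and at least 40 points above the plate without the antibiotic, then above 30% in a dose series; inconclusive = first-round hits that could not be retested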;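 also: growth measured after seven days incubation then overnight dye step; 0% = bacteria only wells and 100% = bacteria with antibiotic; twin plates without the antibiotic show which effects depend on it; some results filed as inactive read as strong as hits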
RecA intein inh: blocks M. tuberculosis RecA intein splicing; 0.75% of 290,000 active; P9WHJ3; inhibition, %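 (about 9 µM by stock and volumes)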; cell-free RecA intein splicing, fluorescence; in the data active = inhibition above about 30%; inconclusive = no clear call, values can overlap the other calls;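 also: 0% = vehicle wells and 100% = reference inhibitor control wells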
Target sequence (P9WHJ3 whole entry, looked up): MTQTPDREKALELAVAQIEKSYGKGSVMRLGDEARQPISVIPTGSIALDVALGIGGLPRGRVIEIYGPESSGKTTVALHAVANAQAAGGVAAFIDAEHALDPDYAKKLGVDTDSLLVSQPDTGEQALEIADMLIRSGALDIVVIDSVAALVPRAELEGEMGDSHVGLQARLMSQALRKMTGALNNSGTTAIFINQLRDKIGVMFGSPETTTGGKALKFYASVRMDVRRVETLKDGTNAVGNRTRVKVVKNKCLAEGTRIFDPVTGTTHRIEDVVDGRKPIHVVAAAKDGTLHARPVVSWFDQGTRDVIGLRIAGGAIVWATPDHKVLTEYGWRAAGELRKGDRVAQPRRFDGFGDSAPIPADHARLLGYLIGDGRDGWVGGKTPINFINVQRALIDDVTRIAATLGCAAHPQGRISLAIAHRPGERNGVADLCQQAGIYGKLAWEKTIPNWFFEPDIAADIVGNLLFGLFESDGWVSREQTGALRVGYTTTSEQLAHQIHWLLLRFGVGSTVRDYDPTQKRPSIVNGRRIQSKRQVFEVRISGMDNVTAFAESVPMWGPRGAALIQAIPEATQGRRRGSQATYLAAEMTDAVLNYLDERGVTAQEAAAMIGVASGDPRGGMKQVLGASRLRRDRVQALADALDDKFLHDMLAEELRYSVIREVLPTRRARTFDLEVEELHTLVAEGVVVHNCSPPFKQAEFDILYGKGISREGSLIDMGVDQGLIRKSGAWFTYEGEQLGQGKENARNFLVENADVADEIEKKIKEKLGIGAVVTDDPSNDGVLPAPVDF
Arbovirus anti repeat: further read-out of Arbovirus anti, marked with its call; inhibition, %; measured here: 10K subset replicate screen; many hits read low in the repeat;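 first of two repeat runs on a subset; 0% = infected and 100% = uninfected wells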
* = called active by the depositor; ? = inconclusive; nt = not tested or not shown.

SMILES	Mtb growth	YopH inh	Arbovirus anti	Mtb bLac sens	RecA intein inh	others
Cc1cc(NC(=O)CSc2ccccc2)no1	-6%	-39	2	-2	-0.3
CCc1ccc2nc(N3CCN(C(=O)C(C)(C)C)CC3)sc2c1	nt	nt	nt	28	2.6
CN1CCN(C(=S)NC(=O)c2ccco2)CC1	-9%	nt	-3	-3	9.6
CCOc1cc(/C=C2\SC(=N)N(c3nccs3)C2=O)ccc1OCCN1CCOCC1	0.39µM*	-24	-19	89	4.7
O=C(CC1Sc2ccccc2NC1=O)NCc1ccc(Cl)cc1 (stereo not drawn)	-5%	nt	-6	5	0.2
CCOC(=O)COc1coc(CN2CCN(c3ccc(F)cc3)CC2)cc1=O	nt	nt	nt	45	-0.7
COCCNC(=S)Nc1ccccn1	-15%	nt	-1	4	-1.1
Cc1c(Cl)cccc1NC(=O)Cn1nc(C)n2cccc2c1=O	nt	nt	nt	6	0.4
Cc1cc(NS(=O)(=O)c2ccc(NC(=O)CSc3nc4sc(C(=O)O)c(C)c4c(=O)[nH]3)cc2)no1	-1%	nt	-3	4	0.0
CS(=O)(=O)N1CCN(c2nnc(-c3ccccc3)c3ccccc23)CC1	-10%	-12	0	2	-0.4
COc1ccc(C(=O)Nc2cnccn2)cc1[N+](=O)[O-]	nt	nt	nt	-15	-2.9
COc1ccc(NC(=O)c2ccc(S(=O)(=O)NCc3cccnc3)cc2)cc1	nt	nt	nt	-4	6.1
CC(C)c1ccc(CNc2nnnn2C)cc1	nt	nt	nt	-1	0.6
COc1ccc2[nH]cc(CCn3ccc(O)c(C/C=C/c4ccccc4)c3=O)c2c1	-1%	nt	5	-5	4.5
COc1ccccc1C(=O)COC(=O)/C(=C/c1ccccc1)NC(C)=O	nt	nt	nt	-1	-0.5
CCOC(=O)COc1ccc(S(=O)(=O)NCc2ccco2)cc1	10%	-23	0	6	-0.6
Cc1noc(C)c1CN(C(=S)NC1CC2CCC1C2)c1ccccc1 (stereo not drawn)	3%	nt	-3	-3	nt
CC(C)Oc1ccc(S(=O)(=O)N2CCOCC2)cc1NC(=O)Cc1cccs1	nt	nt	nt	-6	-4.6
CN1C(=O)C2CN(CCc3ccccc3)CNC2N(C)C1=O (stereo not drawn)	-1%	-25	1	-1	0.9
COc1cc2oc3ccccc3c2cc1N(CC(=O)N1CCCCC1)S(=O)(=O)c1ccc(C)cc1	12%	-6	-7	-2	6.5
COc1ccc(NC2CCCN(C(=O)Cn3ccc(C)n3)C2)cc1OC (stereo not drawn)	nt	nt	nt	3	-3.8
CCN1CCC2(CCN(Cc3cn[nH]c3-c3ccc(OC)c(F)c3)C2)C1 (stereo not drawn)	-1%	nt	3	4	3.1
CCOc1ccc2[nH]c(=O)c(C(c3nnnn3CCOC)N3CCOCC3)cc2c1 (stereo not drawn)	-3%	-36	2	-1	1.2
CC(=O)COC(=O)CNC(=O)c1ccc(Br)cc1	-5%	-5	13	0	-2.7
COc1ccc(CNC(=O)Nc2ccc([N+](=O)[O-])cc2)cc1	16%	nt	nt	-8	1.5

Next part, overlapping the part above by three compounds.
SMILES	Mtb growth	YopH inh	Arbovirus anti	Mtb bLac sens	RecA intein inh	others
CCOc1ccc2[nH]c(=O)c(C(c3nnnn3CCOC)N3CCOCC3)cc2c1 (stereo not drawn)	-3%	-36	2	-1	1.2
CC(=O)COC(=O)CNC(=O)c1ccc(Br)cc1	-5%	-5	13	0	-2.7
COc1ccc(CNC(=O)Nc2ccc([N+](=O)[O-])cc2)cc1	16%	nt	nt	-8	1.5
COc1ccccc1Oc1ncnc2sccc12	-5%	nt	2	-4	-1.5
O=C(CSc1nnc(-c2ccccc2O)o1)NC1CCCCC1	nt	nt	nt	69	1.2
COc1ccc(OCCCC(=O)Nc2cccc(C(C)=O)c2)cc1	-3%	-25	2	6	2.4
Cc1ccn2c(NC3CCCCC3)c(C(C)C)nc2c1	nt	-6	15	0	-3.2
COC(=O)c1ccc(C(=O)OCc2nc3cc4ccccc4cc3[nH]2)cc1	-10%	36	9	-9	3.1
O=C(CSc1nc2c(cnn2-c2ccccc2)c(=O)[nH]1)NC1CCS(=O)(=O)C1 (stereo not drawn)	1%	nt	0	-2	-1.0
Cc1c(C(=O)OCC(=O)N2CC(C)OC(C)C2)oc2ccc(Br)cc12 (stereo not drawn)	-7%	-22	0	-2	4.6
COC(=O)c1nonc1NCn1nnc2ccccc21	-8%	-12	2	-8	-5.4
N#CC1=C(N)N(c2ccccc2)C2=C(C(=O)CCC2)C1c1ccsc1 (stereo not drawn)	-2%	-27	15	-1	4.7
CC(=O)C1=C(C)OC(N)=C(C#N)C1c1ccncc1 (stereo not drawn)	2%	5	4	-9	-0.7
Cn1ccsc1=NC(=O)c1cccc(C#N)c1	nt	nt	nt	0	-4.0
N#C/C(=C\c1ccc(-c2ccccc2C(=O)O)o1)c1nc2ccccc2[nH]1	nt	nt	nt	6	-33
CN(C(=S)Nc1cccnc1)c1ccc(O)cc1	-12%	5	7	1	-0.8
O=C(N/N=C/c1cccc2ccccc12)c1cc(C2CC2)[nH]n1	nt	nt	nt	-5	-0.4
CCCOc1ccc(-c2c(C(=O)N/N=C/c3ccccc3OCC)nnn2-c2nonc2N)cc1	nt	nt	nt	9	0.1
O=C(O)CC1SC(=Nc2cccc(C(F)(F)F)c2)NC1=O (stereo not drawn)	3%	-32	3	-4	0.6
O=c1c([N+](=O)[O-])c(N2CCOCC2)c2ccccc2n1Cc1ccccc1	-6%	nt	-1	-7	8.4
Cc1nc(-c2ccc(O)c(O)c2)cs1	4%	12	-1	38	-4.2
CCCCCC1CC(CC(=O)O)C(=O)O1 (stereo not drawn)	-7%	-11	16	-4	-3.1
CN(C)CCOC(=O)CC12CC3CC(C1)CC(CC(=O)OCCN(C)C)(C3)C2	-4%	nt	9	5	2.0
Cc1cc(C)cc(N2C(=O)CC(n3ccnc3)C2=O)c1 (stereo not drawn)	5%	-12	5	-2	-15
COC(=O)c1cc(C(=O)OCC(=O)NC2CCS(=O)(=O)C2)cc([N+](=O)[O-])c1 (stereo not drawn)	-2%	nt	6	-6	0.6
O=C(O)c1ccc(Nc2nc(-c3cccnc3)cs2)cc1O	nt	nt	nt	90	0.3
Cc1ccc(CC(=O)Nc2ccncc2)cc1	1%	nt	15	4	3.4
Cc1ccc(C2NC(=S)NC3=C2C(=O)CC(C)(C)C3)cc1 (stereo not drawn)	-4%	-31	7	-5	-1.5

(further entries)
SMILES	Mtb growth	YopH inh	Arbovirus anti	Mtb bLac sens	RecA intein inh	others
O=C(CCn1c(=O)oc2ccccc21)N1CCc2ccccc21	-7%	-36	0	-6	-2.0
C=CCn1c(SCc2cc([N+](=O)[O-])cc3c2OCOC3)nc2cc(C(=O)O)ccc2c1=O	-3%	nt	nt	-6	nt
O=S(=O)(Nc1cccc2ccccc12)c1cccs1	nt	nt	nt	8	3.8
Nc1c2c(nc3sc4c(c13)CCCC4)CCCCCC2	7%	-26	-14	7	-1.0
Cc1nn(-c2cccc(C(F)(F)F)c2)c(=O)c2ccccc12	nt	nt	nt	2	-1.8
COc1ccc(C)cc1N(CC(=O)Nc1cccnc1)S(=O)(=O)c1ccc(C)cc1	-4%	nt	0	-1	-2.0
CCc1nc(Nc2ccccc2OC)c2oc3ccccc3c2n1	nt	nt	nt	8	6.4
Cc1cccc(NS(=O)(=O)c2cc(C(=O)OCC(=O)Nc3cc(C)on3)ccc2C)c1	4%	-42	5	-6	5.8
O=C(c1ccc2c(c1)OCO2)N1CCN(S(=O)(=O)N2CCCCC2)CC1	nt	nt	nt	-2	0.5
CCC(NS(=O)(=O)c1ccc(OC)cc1)C(=O)NCCc1ccccc1 (stereo not drawn)	nt	nt	nt	-2	0.6
NC(=O)C(CCC(=O)c1ccc(Br)cc1)S(=O)(=O)c1ccccc1 (stereo not drawn)	3%	nt	2	-5	-5.0
CC(=O)Nc1ccc2nc(CN3CCN(CC(C)C)C(CCO)C3)ccc2c1 (stereo not drawn)	7%	nt	-2	-12	-1.3
COc1cc(NC(=O)c2cnn3c(C(F)F)cc(C4CC4)nc23)c(OC)cc1Cl	3%	nt	-2	-6	0.1
CC(C)(C)C1CCC(OC(=O)C[N+]2(C)CCCCC2)CC1 (stereo not drawn)	-6%	nt	2	-6	-5.9
CCOc1ccc(Br)cc1S(=O)(=O)Nc1ccc(C(=O)OCC(=O)Nc2ccc(C#N)cc2)cc1	8%	nt	-10	-4	-0.9
CC(C)CCNC(=O)c1ccc(OC2CCN(S(=O)(=O)N(C)C)CC2)cc1	2%	nt	-9	-4	-1.1
CC(C)(C)c1ccc(OCCC(=O)NCC(c2cccs2)N2CCOCC2)cc1 (stereo not drawn)	nt	nt	nt	-12	-5.7
CCN(CC(=O)Nc1ccc(NC(C)=O)cc1)C(=O)Cc1coc2cc(C)c(C)cc12	nt	nt	nt	-1	1.0
O=C(Nc1ccc(F)cc1)c1cnc(-c2ccccc2)nc1-c1ccccc1	-5%	-32	-15	21	-0.2
CCN1C=C(Cc2ccc(OC)cc2)C2=C(C1)C(c1ccc(OC)cc1)C(C#N)=C(N)O2 (stereo not drawn)	nt	-7	19	30	nt
COc1ccc(C2=CC3=C(Br)C(=O)C(C)(OC(=O)C4CCCC4)C(=O)C3=CO2)cc1 (stereo not drawn)	10%	nt	nt	-2	5.5
Cn1c(SCC(=O)NCc2ccco2)nnc1C1CCCC1	nt	nt	nt	0	1.6
COc1cccc(C(=O)Nc2ccc(NC(=O)C3CC3)cn2)c1	7%	-6	8	-4	2.7
CCOC(=O)N1CCN(S(=O)(=O)N2CCCC(C(=O)NCCc3ccc(OC)c(OC)c3)C2)CC1 (stereo not drawn)	nt	nt	nt	-1	-1.4
CCNc1nc(NCC)n2c(SCC(=O)Nc3ccc(NC(C)=O)cc3)nnc2n1	nt	nt	nt	9	-1.6

4 successive records from above, quoted:
SMILES	Mtb growth	YopH inh	Arbovirus anti	Mtb bLac sens	RecA intein inh	others
Cc1nn(-c2cccc(C(F)(F)F)c2)c(=O)c2ccccc12	nt	nt	nt	2	-1.8
COc1ccc(C)cc1N(CC(=O)Nc1cccnc1)S(=O)(=O)c1ccc(C)cc1	-4%	nt	0	-1	-2.0
CCc1nc(Nc2ccccc2OC)c2oc3ccccc3c2n1	nt	nt	nt	8	6.4
Cc1cccc(NS(=O)(=O)c2cc(C(=O)OCC(=O)Nc3cc(C)on3)ccc2C)c1	4%	-42	5	-6	5.8

(listing goes on)
SMILES	Mtb growth	YopH inh	Arbovirus anti	Mtb bLac sens	RecA intein inh	others
COc1ccc(OC)c(/C=N/c2c(-c3ccc(O)c(OC)c3)nc3ccccn23)c1	3%	nt	-3	-10	-74
COc1ccc(C2NC(=O)c3sc4nc(C)c(C(C)=O)c(-c5ccc(Cl)cc5)c4c3N2)cc1 (stereo not drawn)	1%	-33	3	-1	-17
CCCCOc1ccc(NC2=NC3(CCCCC3)N=C(N)N2)cc1	0%	2	-16	?	5.1
Cc1cc2nc3c(=O)[nH]c(=O)[nH]c3nc2c([N+](=O)[O-])c1N	2%	nt	3	nt	nt
CCn1ccc(-c2ccccc2)c(C#N)c1=O	-6%	nt	6	5	1.9
Cc1ccc2nc3c(cc(C(=O)NCCc4ccccc4)c(=N)n3CCCN3CCOCC3)c(=O)n2c1	nt	nt	nt	7	-285
O=C(c1ccc([N+](=O)[O-])cc1)N1CCCC1	1%	nt	nt	-1	-3.3
Cc1oc(-c2ccc(Cl)cc2)nc1CN1CCCC(C(=O)NCCCN2CCCC2=O)C1 (stereo not drawn)	nt	nt	10	0	nt	Arbovirus anti repeat=6
COc1cc2c(cc1OC)C(c1ccc(Br)cc1)CC(=O)N2 (stereo not drawn)	nt	nt	nt	6	-2.4
C=CCNS(=O)(=O)c1ccc2c(c1)n(C)c(=O)n2C	-2%	nt	-6	-4	0.4
COc1ccc(-c2c([C@H]3[C@@H]4C=CCC[C@@]4(C)C(=O)N3Cc3ccccc3)ccc3ccccc23)cc1OC	46%	nt	nt	95	14
O=S(=O)(c1ccc(F)cc1)N1CCCC1c1cccnc1 (stereo not drawn)	-6%	nt	nt	-11	-0.5
O=C(N/N=C/C(Cl)=C/c1ccccc1)c1cnccn1	0%	-13	-8	19	1.9

Arranged by heavy-atom count (high to low): some entries from above.
SMILES	Mtb growth	YopH inh	Arbovirus anti	Mtb bLac sens	RecA intein inh	others
Cc1ccc2nc3c(cc(C(=O)NCCc4ccccc4)c(=N)n3CCCN3CCOCC3)c(=O)n2c1	nt	nt	nt	7	-285
COc1ccc(C2NC(=O)c3sc4nc(C)c(C(C)=O)c(-c5ccc(Cl)cc5)c4c3N2)cc1 (stereo not drawn)	1%	-33	3	-1	-17
Cc1oc(-c2ccc(Cl)cc2)nc1CN1CCCC(C(=O)NCCCN2CCCC2=O)C1 (stereo not drawn)	nt	nt	10	0	nt	Arbovirus anti repeat=6
CCCCOc1ccc(NC2=NC3(CCCCC3)N=C(N)N2)cc1	0%	2	-16	?	5.1
C=CCNS(=O)(=O)c1ccc2c(c1)n(C)c(=O)n2C	-2%	nt	-6	-4	0.4

An excerpt, so the mix of outcomes need not match the whole.
